Calb FLC: affects C. albicans growth with fluconazole | C. albicans CaCi-2 (fluconazole-resistant clinical isolate) + fluconazole, Alamar Blue growth, 48 h | growth inhibition, % (no concentration beside the values) | actives 0.57% (n = 300,000) | AID 1979;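 active means most replicates above 75%; inconclusive means exactly half above 75%; inactive means most below 75%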;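 further: all wells also contain fluconazole at 8 µg/ml as a sub-toxic cotreatment; 0% = median of DMSO wells and 100% = median of geldanamycin control wells; wells of about 8 µL received 7.5 nL stock; the first replicate is given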
RanGTP-Imp inh: inhibitors of RanGTP-importin-beta interaction, primary screen, biochemical, FRET, CFP-Ran, YFP-importin-beta, homogeneous. AID 2216. inhibition, % (test concentration not listed). cell-free CFP-Ran/YFP-importin-beta FRET ratio. actives 1.1% (n = 300,000);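 active means most replicates above 15%; inconclusive means exactly half above 15%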;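 further: 0% = DMSO wells and 100% = Ran loaded with GDP instead of GTP; wells of about 40 µL received 100 nL stock; the first replicate is given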
HNF4A DNA FP: change in binding of human HNF4 alpha to DNA; P41235; HNF4a-FITC DNA binding, fluorescence polarization, 1 h; activity change, % at 10 µM; actives 0.3% (n = 360,000); in the data active means activity change above about 30%, passing the limit was not always enough;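 further: controls were the assay level and a saturating level of protein; the project sought stronger binding though the title names inhibitors; some compounds called inactive have numbers as strong as hits; positive values seem to mean higher polarization but the record does not say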
Target sequence (P41235 whole entry, looked up): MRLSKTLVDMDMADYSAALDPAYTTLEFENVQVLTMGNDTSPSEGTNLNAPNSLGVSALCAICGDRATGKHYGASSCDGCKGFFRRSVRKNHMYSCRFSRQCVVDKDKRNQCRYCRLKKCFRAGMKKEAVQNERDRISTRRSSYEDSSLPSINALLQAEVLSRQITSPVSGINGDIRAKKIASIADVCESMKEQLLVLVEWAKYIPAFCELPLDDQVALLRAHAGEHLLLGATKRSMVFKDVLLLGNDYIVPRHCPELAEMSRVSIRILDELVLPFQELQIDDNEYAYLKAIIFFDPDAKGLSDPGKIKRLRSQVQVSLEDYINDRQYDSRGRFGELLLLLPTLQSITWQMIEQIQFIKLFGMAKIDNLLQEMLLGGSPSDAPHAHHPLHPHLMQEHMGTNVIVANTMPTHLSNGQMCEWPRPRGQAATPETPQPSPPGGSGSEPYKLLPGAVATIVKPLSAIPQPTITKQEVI
LANA-H2B inh: blocks KSHV LANA binding to histone H2A/H2B; Q9QR71; cell-free LANA-H2A/H2B peptide, fluorescence polarization; inhibition, % (test concentration not listed); actives 0.6% (n = 320,000); in the data active means inhibition mostly above about 10%, no sharp cut-off; inactive means mostly below about 6.7%;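 further: stock transfer was 7.5 nL into about 10 µL; 0% = median of vehicle wells and 100% = median of positive control wells; one replicate is shown; the record names a cut of 25% in any replicate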
B2AR ag: activates human beta-2 adrenergic receptor causing internalization; Am2.2-beta2AR cells, FAP receptor internalization, flow cytometry; reference of the scale not given here; actives 0.43% (n = 340,000); response, % (test concentration not listed); P07550;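 active means response above a set limit, near 3 SD of response in nonfluorescent compounds, cut at about 42% in these data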;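 further: stock transfer was 100 nL into about 11 µL; a reference agonist was the positive control; negative values mostly stem from fluorescent compounds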
Target sequence (P07550 whole entry, looked up): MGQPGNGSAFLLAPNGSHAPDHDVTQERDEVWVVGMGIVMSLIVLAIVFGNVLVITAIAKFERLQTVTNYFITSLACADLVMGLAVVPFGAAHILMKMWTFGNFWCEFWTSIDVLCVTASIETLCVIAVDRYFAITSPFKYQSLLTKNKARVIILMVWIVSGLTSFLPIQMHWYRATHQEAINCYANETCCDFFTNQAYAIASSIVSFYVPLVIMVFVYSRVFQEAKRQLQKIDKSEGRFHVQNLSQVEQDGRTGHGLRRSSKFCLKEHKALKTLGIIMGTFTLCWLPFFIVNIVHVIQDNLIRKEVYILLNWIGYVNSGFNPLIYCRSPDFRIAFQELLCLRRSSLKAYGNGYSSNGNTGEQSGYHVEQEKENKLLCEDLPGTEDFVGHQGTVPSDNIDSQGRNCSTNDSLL
ALR inh: inhibitors of human sulfhydryl oxidase ALR; AID 485317; P55789; actives 3.8% (n = 290,000); purified ALR, DTT oxidation, H2O2 HRP-luminol luminescence; inhibition, % (no concentration beside the values);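 active means mean and each replicate at 75% or more; inconclusive means only one of the two met; inactive means neither met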;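 further: stock transfer was 7.5 nL into about 7.5 µL; 0% = neutral wells and 100% = wells with inactivated enzyme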
Target sequence (P55789 whole entry, looked up): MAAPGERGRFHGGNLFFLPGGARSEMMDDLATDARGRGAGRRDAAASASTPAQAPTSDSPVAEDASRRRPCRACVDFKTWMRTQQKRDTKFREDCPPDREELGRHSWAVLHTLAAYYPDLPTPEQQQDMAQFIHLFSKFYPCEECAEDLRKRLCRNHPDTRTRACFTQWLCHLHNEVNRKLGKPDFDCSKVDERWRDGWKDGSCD
Vif A3G: inhibitors of Vif binding to APOBEC3G peptide, primary screen, biochemical, TR-FRET, GST-Vif 1-94, biotin-A3G peptide, dose response retest (AID 1117319). TR-FRET GST-Vif / biotin-A3G peptide binding; higher % means a stronger effect; test concentration not given here; strong numbers were not always called active. inhibition, %; hits with a dose series show IC50 in µM. actives 0.57% (n = 260,000);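 active means above the screen mean plus three standard deviations and confirmed in dose response; inconclusive means results disagree or hit not tested in dose response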;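 further: Vif residues 1-94 fused to GST binding biotinylated APOBEC3G peptide 110-148; 0% = full assay without inhibitor and 100% = GST in place of GST-Vif; retest series ran down from 100 µM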
Numbers without * were called inactive; ? = inconclusive; . = not tested or not shown.

SMILES	Calb FLC	RanGTP-Imp inh	HNF4A DNA FP	LANA-H2B inh	B2AR ag	ALR inh	Vif A3G
COc1ccc(C(=O)NCCN2C(=O)S/C(=C\c3cccnc3)C2=O)c(OC)c1OC	-10	-2.2	-1.2	0.2	-8	4	.
CC(C)c1ccccc1NC(=O)Nc1ccc(F)cc1F	-11	5.0	-1.9	0.4	-4	0	-4%
CC(=O)Nc1ccc(NC(=O)C2CCCN2C(=O)Nc2ccccc2[N+](=O)[O-])cc1 (centres undefined)	7	1.5	3.7	-16	-2	-6	0%
O=[N+]([O-])c1cc(Cl)ccc1NCCNc1ncc(C(F)(F)F)cc1Cl	1	-2.9	-3.9	-0.5	10	-22	19%
O=C(COC(=O)C1CC(=O)N(Cc2ccccc2)C1)c1ccc(Br)cc1 (centres undefined)	-10	8.2	2.3	-0.4	9	-21	.
COCCNC(=O)C(=O)N/N=C/c1cccs1	11	-1.0	2.5	2.6	2	6	6%
Cc1cccc(-c2cc(C(=O)NCc3ccccn3)c3ccccc3n2)c1	5	3.1	1.0	-1.2	1	1	12%
C=CCn1c(SCN2C(=O)c3ccccc3C2=O)nc2ccc(Cl)cc2c1=O	2	-0.9	0.0	0.9	-7	31	-23%
O=[N+]([O-])c1ccc(S(=O)(=O)N/N=C/c2ccc3c(c2)OCO3)cc1	-1	-3.9	0.5	3.8	-3	12	.
CN(C)S(=O)(=O)c1ccc(/C(O)=C2/C(=O)C(=O)N(CCCN3CCOCC3)C2c2ccncc2)cc1 (centres undefined)	-4	-2.7	-2.7	0.8	-4	.	.
Cc1cc(C)c(NC(=O)COC(=O)Cc2cccs2)c(C)c1	1	2.2	-14	-7.5	1	-3	0%
CC(CCCN(C)C)C(Cc1ccccc1)c1ccccc1 (centres undefined)	-8	1.7	-3.1	-2.6	6	.	.
Cc1nc2c(-c3ccc(Cl)cc3)cnn2c(N)c1-c1ccc(F)cc1	32	-2.7	2.3	0.6	3	-2	-9%
O=C1CC(c2ccc(O)cc2)Oc2cc(O)ccc21 (centres undefined)	1	?	4.9	0.7	-16	67	.
Cc1nc2cnccc2n1C	-1	-1.8	1.1	-3.5	4	-10	-8%
COCCSc1ccccc1C(=O)Nc1ccc(Cl)cn1	-1	0.0	5.4	3.2	-5	-8	8%
COc1ccccc1C(=O)Nc1cccc(NC(=O)c2ccccc2OC)n1	7	1.5	1.6	-4.2	7	-4	.
COc1ccc(/C=C/C(=O)NC(=S)NNC(=O)c2ccco2)cc1	-13	?	0.5	-1.9	-4	86*	16%
CCCCOc1ccc(Cl)cc1CSc1nnc(C)n1N	0	0.9	0.4	-2.9	-18	1	4%
CCCc1cc(C(=O)NNC(=S)Nc2cccc(C)c2)cs1	3	2.6	2.5	-23	-7	.	.

The last seven entries of the section above are carried over, then new ones follow:
SMILES	Calb FLC	RanGTP-Imp inh	HNF4A DNA FP	LANA-H2B inh	B2AR ag	ALR inh	Vif A3G
O=C1CC(c2ccc(O)cc2)Oc2cc(O)ccc21 (centres undefined)	1	?	4.9	0.7	-16	67	.
Cc1nc2cnccc2n1C	-1	-1.8	1.1	-3.5	4	-10	-8%
COCCSc1ccccc1C(=O)Nc1ccc(Cl)cn1	-1	0.0	5.4	3.2	-5	-8	8%
COc1ccccc1C(=O)Nc1cccc(NC(=O)c2ccccc2OC)n1	7	1.5	1.6	-4.2	7	-4	.
COc1ccc(/C=C/C(=O)NC(=S)NNC(=O)c2ccco2)cc1	-13	?	0.5	-1.9	-4	86*	16%
CCCCOc1ccc(Cl)cc1CSc1nnc(C)n1N	0	0.9	0.4	-2.9	-18	1	4%
CCCc1cc(C(=O)NNC(=S)Nc2cccc(C)c2)cs1	3	2.6	2.5	-23	-7	.	.
O=C(Nc1cccc(Cl)c1)c1ccc(NCC2CCCO2)c([N+](=O)[O-])c1 (centres undefined)	?	-3.0	16	-2.7	-8	.	.
COc1ccc(CCNC(=O)[C@H](CC(C)C)NC(=O)N2CCn3c2nc2ccccc23)cc1OC	-5	-1.5	0.1	-1.1	-3	-5	.
COC(=O)c1[nH]c2ccc(Br)cc2c1NC(=O)C(C)N1CCN(C2CCCCC2)CC1 (centres undefined)	.	0.5	0.3	-1.6	-4	7	-8%
COc1cc(/C=C2/SC(=O)N(CC(=O)N3CCCC3)C2=O)ccc1Oc1ccc([N+](=O)[O-])cn1	-11	0.8	1.9	-1.9	0	54	-6%
Cc1ccc(CNC(=O)CN2CCCC(C)C2)cc1 (centres undefined)	-5	-3.2	7.3	1.9	2	1	0%
O=c1c2c(nc3n1CCCCC3)sc1c(O)cccc12	.	.	-5.5	0.6	1	94*	4%
CC(=O)c1cn(CC(=O)NCc2cccnc2)c2ccccc12	-4	-3.3	2.0	-2.2	1	-5	-1%
NC1=NC(=Nc2ccc(Br)cc2)c2ccccc21	-16	-3.4	2.0	-0.6	4	47	-3%
COc1cc(CNc2ccccc2)c([N+](=O)[O-])cc1OC	8	?	1.1	0.7	6	?	.
CCc1ccc(N2CC(C(=O)Nc3ccc(S(=O)(=O)Nc4ncccn4)cc3)CC2=O)cc1 (centres undefined)	0	-3.8	0.2	2.7	8	6	.
CC1CCCCC12NC(=O)N(CC(=O)N1CCN(Cc3ccc(C#N)cc3)CC1)C2=O (centres undefined)	.	.	-2.2	0.5	1	.	.
O=C(NCc1ccccn1)c1ccccc1-c1ccccc1	-5	-5.9	-0.6	-1.6	7	3	-2%
O=C(Nc1ccccc1)C1CCCCN1S(=O)(=O)c1ccccc1 (centres undefined)	6	-2.7	5.0	0.5	-4	-4	6%
CC(C)n1cc(/C=N/Nc2ccc(Cl)c(C(=O)O)c2)c2ccccc21	-4	-1.1	-40	2.5	0	?	.
Cc1sc(NC(=O)c2cccnc2)nc1-c1ccccc1	7	-2.3	-0.3	-1.0	8	-3	.
CCN(CC)C(CNC(=O)c1cc(=O)[nH]c2ccccc12)c1ccccc1Cl (centres undefined)	-3	0.3	3.0	-4.1	-24	.	.
COc1cccc(OC)c1C(=O)NC(=S)Nc1ccc2c(c1)C(=O)N(C)C2=O	-1	?	-1.4	2.9	13	7	-25%
COC(=O)c1ccc(C(=O)Nc2ccc3nc(-c4cccnc4)[nH]c3c2)cc1	-7	?	7.8	2.5	9	.	-2%
CCn1nnc(NC(=O)c2ccc(Br)o2)n1	6	1.6	0.8	-0.4	2	-11	.
CCN(CC)CCC(c1ccc2c(c1)OCO2)c1c(OC)cc(OC)c2c(-c3ccccc3)cc(=O)oc12 (centres undefined)	-23	0.7	-0.9	2.6	33	.	.

Arranged by length of the SMILES (rising): part of the list above
SMILES	Calb FLC	RanGTP-Imp inh	HNF4A DNA FP	LANA-H2B inh	B2AR ag	ALR inh	Vif A3G
O=C(Nc1ccccc1)C1CCCCN1S(=O)(=O)c1ccccc1 (centres undefined)	6	-2.7	5.0	0.5	-4	-4	6%
O=C(Nc1cccc(Cl)c1)c1ccc(NCC2CCCO2)c([N+](=O)[O-])c1 (centres undefined)	?	-3.0	16	-2.7	-8	.	.
CCc1ccc(N2CC(C(=O)Nc3ccc(S(=O)(=O)Nc4ncccn4)cc3)CC2=O)cc1 (centres undefined)	0	-3.8	0.2	2.7	8	6	.

Following part
SMILES	Calb FLC	RanGTP-Imp inh	HNF4A DNA FP	LANA-H2B inh	B2AR ag	ALR inh	Vif A3G
C=CCn1c(SCC(=O)Nc2cc(OC)c(NC(=O)c3ccco3)cc2OC)nnc1-c1ccncc1	15	?	3.1	-11	-22	-11	-4%
Clc1ccccc1CSc1ncccn1	1	4.3	-1.6	-9.6	7	-5	-3%
CC(OC(=O)Cn1cnc2c1c(=O)n(C)c(=O)n2C)C(=O)NC1CCCCC1C (centres undefined)	-2	.	-1.7	1.1	1	5	-10%
c1ccc(Cn2c(CNc3nc4ccccc4n3CCN3CCOCC3)nc3ccccc32)cc1	-3	?	7.3	5.2	-3	2	18%
Cc1cccc(Nc2nc(-c3ccc(O)c(O)c3)cs2)n1	-26	-1.6	2.4	8.7	12	99*	17%
Cc1ccc(NC(=O)c2ccc3c(c2)C(=O)N(c2cc(C)ccc2C)C3=O)nc1	-3	-2.7	-3.8	3.4	-6	32	-5%
CC1CCN(C(c2ccc(N(C)C)cc2)c2nnnn2Cc2ccccc2)CC1 (centres undefined)	-5	-70	-1.3	2.5	7	.	7%
CC(C)C(NS(=O)(=O)c1cccc2nsnc12)C(=O)NCc1ccc2c(c1)OCO2 (centres undefined)	-12	0.1	1.9	3.1	1	.	-7%
O=C(Nc1scc(-c2cccs2)c1C(=O)O)c1cccs1	-15	-1.2	-2.7	2.0	-5	61	5%
CCOc1ccccc1NC(=O)N1CCC(NC(=O)c2cccc(C)c2)CC1	-6	?	-3.5	-1.2	2	-11	4%
CC(=O)c1ccc(NC(=O)CN2C(=O)NC3(CCCc4ccccc43)C2=O)cc1 (centres undefined)	.	.	1.1	-0.7	9	-4	.
N#Cc1cc(C(=O)Cc2ccccc2)c[nH]1	0	-0.4	-1.4	-2.3	-10	1	16%
COc1cc(/C=C(\C#N)C(=O)N2CCc3ccccc32)ccc1O	4	2.3	0.3	-2.4	9	100*	3%
CC(=O)Nc1nonc1-c1nc2ccccc2n1CCC(C)C	-2	1.0	-0.4	2.9	-5	-9	?
CC(=O)Oc1ccc2nc(/C=C/c3ccccc3)oc(=O)c2c1	-3	2.6	2.2	-1.0	-5	1	-3%
c1ccc(-c2cnc(-c3ccccc3)nc2)cc1	-21	-0.9	5.0	4.7	7	-7	-2%
Cc1cc(NC(=O)C2CC(c3ccc(F)cc3)=NO2)no1 (centres undefined)	-9	-3.9	2.1	0.0	-1	0	1%
COc1ccc(CNC(=O)c2c(-c3cc(Cl)c(OC)c(Cl)c3)noc2C)cc1	4	2.2	5.5	3.3	-7	-32	75%
CC(C)CCn1c(SCC(=O)c2ccccc2)nc2c1c(=O)[nH]c(=O)n2C	11	-0.7	-0.6	6.0	-4	-6	2%
CCCc1cc(=O)[nH]c(SCC(=O)Nc2ccc(N3CCCCC3)cc2)n1	.	.	3.3	-1.8	8	28	-1%
CC1CCCN(C(C(=O)Nc2ccc(C(C)C)cc2)c2ccc3c(c2)OCO3)C1 (centres undefined)	-5	1.7	4.0	2.5	1	-9	-3%
C=CCOC(=O)C1=C(C)NC(C)=C(C(=O)OCC=C)C1c1cccs1	43	-0.8	1.6	4.2	-12	1	3%
Nc1nnc(COc2ccc(Br)cc2Br)s1	27	4.6	-2.9	2.5	-14	-2	-1%
O=C(CSC1=NCCS1)N1CCCC1	-2	7.3	-0.9	6.6	-1	-6	7%
Cc1cc2cc3c(cc2nc1SCC(=O)O)OCCO3	13	-3.0	0.6	-4.4	-4	-21	-2%
O=C(O)CCc1ccc(-c2ccccc2)n1NC(=O)c1sc2ccccc2c1Cl	61	?	-0.1	0.7	-4	98*	16%
Cc1ccc(C)c(NC(=S)NC2CC3CCC(C2)N3Cc2ccco2)c1 (centres undefined)	-7	0.4	-5.8	2.9	-2	4	19%
CN1CCN(c2nc3c(c(=O)[nH]c(=O)n3C)n2CCOc2ccccc2)CC1	-2	6.6	1.8	.	-4	.	-1%
O=C(NC1CCCCC1)[C@H](CSCc1ccccc1)N1Cc2ccccc2C1=O	0	0.7	0.6	-0.7	2	-36	-6%
CCN1C(=O)N(C)[C@@H](c2ccccc2)C(C(C)=O)=C1C	-1	5.6	-0.2	0.6	-6	-1	.
CCSc1nnc(NC(=O)CCn2c(=O)oc3ccccc32)s1	7	6.3	-1.6	-5.5	-3	-5	.
Cc1ccc(Cn2c(CCCO)nc3ccccc32)cc1	7	-2.1	-1.0	2.0	0	-1	-1%

Compound activity deposited in PubChem BioAssay by several laboratories.
